Bioassay records from PubChem.
nsP2pro inh: Primary qHTS for inhibitors of NSP2Pro chikungunya virus (CHIKV); FRET peptide cleavage, nsP2pro, fluorescence 1 h; hit rate 1.1% among 31,000; Potency, µM (doses to about 24.9 µM), for inactives: top-dose activity change, negative = inhibition, usual class: inhibitors; AID 1964107, 2024; active means well fitted inhibition curve with a large enough effect; inconclusive means small, poorly fitted or top-dose-only effect; inactive means no such curve, though single readings can be large or run the other way; further: nearly all actives have a fitted effect of over 60% in size; a reference inhibitor and vehicle were the controls
Target sequence (Q8JUX6 whole entry, looked up): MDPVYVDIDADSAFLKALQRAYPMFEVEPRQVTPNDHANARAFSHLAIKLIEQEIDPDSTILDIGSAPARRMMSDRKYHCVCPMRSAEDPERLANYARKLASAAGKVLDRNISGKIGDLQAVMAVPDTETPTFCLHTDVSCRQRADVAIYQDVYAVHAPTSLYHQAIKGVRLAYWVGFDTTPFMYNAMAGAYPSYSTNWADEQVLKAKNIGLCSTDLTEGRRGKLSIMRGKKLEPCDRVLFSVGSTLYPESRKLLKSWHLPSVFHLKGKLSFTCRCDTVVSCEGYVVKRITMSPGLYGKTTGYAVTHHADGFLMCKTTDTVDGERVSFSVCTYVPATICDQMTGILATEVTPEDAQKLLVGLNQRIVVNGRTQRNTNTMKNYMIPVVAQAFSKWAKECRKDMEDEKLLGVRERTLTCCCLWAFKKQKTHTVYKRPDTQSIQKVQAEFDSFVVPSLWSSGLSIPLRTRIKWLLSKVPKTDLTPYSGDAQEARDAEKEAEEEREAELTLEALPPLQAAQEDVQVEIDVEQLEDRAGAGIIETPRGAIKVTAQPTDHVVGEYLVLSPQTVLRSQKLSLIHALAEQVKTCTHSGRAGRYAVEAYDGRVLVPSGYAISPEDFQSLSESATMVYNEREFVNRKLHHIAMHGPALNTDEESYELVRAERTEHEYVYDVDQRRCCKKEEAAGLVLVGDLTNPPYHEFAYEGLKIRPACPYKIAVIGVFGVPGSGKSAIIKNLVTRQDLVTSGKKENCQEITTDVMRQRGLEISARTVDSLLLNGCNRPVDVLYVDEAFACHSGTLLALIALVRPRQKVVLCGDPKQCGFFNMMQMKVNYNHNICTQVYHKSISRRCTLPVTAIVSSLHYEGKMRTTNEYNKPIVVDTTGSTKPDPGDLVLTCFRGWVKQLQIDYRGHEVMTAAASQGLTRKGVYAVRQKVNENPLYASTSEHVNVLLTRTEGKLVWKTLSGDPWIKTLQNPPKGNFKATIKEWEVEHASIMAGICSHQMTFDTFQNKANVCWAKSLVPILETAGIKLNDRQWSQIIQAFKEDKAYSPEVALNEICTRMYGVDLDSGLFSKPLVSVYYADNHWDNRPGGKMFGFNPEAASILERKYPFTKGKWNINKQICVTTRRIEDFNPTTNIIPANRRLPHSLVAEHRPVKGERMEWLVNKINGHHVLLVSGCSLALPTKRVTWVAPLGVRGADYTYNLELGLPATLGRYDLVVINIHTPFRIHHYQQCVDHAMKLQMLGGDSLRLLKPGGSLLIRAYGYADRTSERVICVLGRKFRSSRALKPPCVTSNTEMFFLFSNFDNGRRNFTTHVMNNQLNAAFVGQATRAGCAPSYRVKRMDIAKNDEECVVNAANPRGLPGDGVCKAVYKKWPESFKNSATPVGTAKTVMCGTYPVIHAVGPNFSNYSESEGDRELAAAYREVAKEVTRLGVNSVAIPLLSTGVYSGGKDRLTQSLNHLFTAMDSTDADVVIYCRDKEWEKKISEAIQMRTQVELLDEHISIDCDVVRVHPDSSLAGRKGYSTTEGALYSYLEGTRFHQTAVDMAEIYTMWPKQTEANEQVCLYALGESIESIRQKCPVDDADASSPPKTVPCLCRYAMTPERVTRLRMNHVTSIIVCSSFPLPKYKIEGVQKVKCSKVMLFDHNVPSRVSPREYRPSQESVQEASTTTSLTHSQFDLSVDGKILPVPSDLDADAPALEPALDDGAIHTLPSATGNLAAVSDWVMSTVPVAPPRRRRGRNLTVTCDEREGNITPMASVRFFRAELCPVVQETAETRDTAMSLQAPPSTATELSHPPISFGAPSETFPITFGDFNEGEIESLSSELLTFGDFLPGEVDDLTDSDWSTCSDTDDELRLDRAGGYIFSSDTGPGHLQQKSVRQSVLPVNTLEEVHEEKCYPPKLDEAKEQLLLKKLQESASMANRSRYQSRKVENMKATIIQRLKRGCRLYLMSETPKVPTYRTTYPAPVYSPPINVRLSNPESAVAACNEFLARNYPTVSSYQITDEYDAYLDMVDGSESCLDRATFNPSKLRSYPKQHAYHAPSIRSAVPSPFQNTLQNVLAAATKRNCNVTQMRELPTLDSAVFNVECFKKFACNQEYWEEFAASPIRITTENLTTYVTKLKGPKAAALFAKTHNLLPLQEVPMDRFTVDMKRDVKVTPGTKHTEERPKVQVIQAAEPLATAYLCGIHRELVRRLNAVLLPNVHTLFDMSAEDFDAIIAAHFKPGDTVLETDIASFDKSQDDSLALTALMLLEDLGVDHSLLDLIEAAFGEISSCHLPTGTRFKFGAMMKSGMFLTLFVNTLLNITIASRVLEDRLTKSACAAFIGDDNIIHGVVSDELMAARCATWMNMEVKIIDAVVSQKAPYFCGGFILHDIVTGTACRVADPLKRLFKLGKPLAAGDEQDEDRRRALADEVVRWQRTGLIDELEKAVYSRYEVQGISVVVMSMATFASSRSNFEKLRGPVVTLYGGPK
Numbers without * were called inactive; i = inactive; u = inconclusive; & = joins results of further samples; [ ] = remark or other dose. On the % scale 0 is the no-effect control and ±100 the full control effect; potency means the concentration at half of the fitted maximal effect.

cpd	SMILES	nsP2pro inh
1	CC1(C)C[C@H](NCC2CCCCC2)[C@@]2(CCC(=O)N3CCCC3)CC[C@](C)(O)C[C@@H]12	u
2	COc1ccccc1C(=O)NCCc1nc2ccccc2n1CCOc1ccc(C)cc1	-3%
3	CN(C)c1nccnc1OC1CCN(S(=O)(=O)c2ccccc2)C1 (configuration not stated)	-16%
4	COc1ccc(S(=O)(=O)NCC(c2ccco2)S(=O)(=O)c2cccs2)cc1C (configuration not stated)	-10%
5	Cc1cnc(C2CCC2)n1CCNC(=O)c1nccn1C	-4%
6	COc1cccc(C(O)c2nc(C(=O)N3CCN(c4ccccn4)CC3)c(C)o2)c1 (configuration not stated)	i
7	CC(C)(C)OC(=O)N1CCC(c2c(C(=O)NCc3ccccn3)cnn2-c2ccc(F)cc2)CC1	-11%
8	O=C(CCl)N1CCC2(CC1)CC(c1cccc(C(F)(F)F)c1)=NO2	-9%[39.2 µM]
9	Cc1ccc(-n2ncc(C(=O)Nc3c(Cl)cccc3Cl)c2C2CCNCC2)cc1	1%
10	c1ccc(-c2n[nH]c(CC3CCNC3)n2)cc1 (configuration not stated)	i
11	Cc1cnc(C(=O)N[C@@H]2CCC[C@@H]2C(=O)NCc2cc(F)ccc2F)cn1	5%
12	COC[C@@H]1OC[C@@]2(C)C3CC[C@@H](O)[C@@H](CC(=O)NCc4ccc(F)cc4)[C@]3(C)CC[C@H]2O1 (some centres not stated)	13%
13	Cc1ccc(NS(=O)(=O)c2cccc(F)c2)cc1C	i
14	COc1ccc2nc(C[C@@H]3C[C@@H](C(C)C)[C@H](CNC(=O)NC4CCCCC4)C=C3C)[nH]c2c1	i
15	COc1cccc(CN2Cc3cc(NS(=O)(=O)c4ccccc4)ccc3OCC2=O)c1OC	i
16	Cc1ccc(C(=O)Nc2ccc(N3CCCCC3)cc2)cc1	1%
17	O=C1CCc2cc(S(=O)(=O)Nc3ccccc3-c3ccccc3)ccc2N1	1%
18	N#Cc1cc(NC(=O)Nc2nnc(-c3ccncc3)s2)ccc1-c1cn[nH]c1	-14%&4%
19	Cc1nc(SCCOc2ccccc2F)[nH]c(=O)c1Cc1ccccc1	u
20	CCOCCCn1c(=N)c(C(=O)NCC2CCCO2)cc2c(=O)n3cccc(C)c3nc21 (configuration not stated)	-23%

Some of these compounds in order of length of the SMILES, smallest number first:
cpd	SMILES	nsP2pro inh
5	Cc1cnc(C2CCC2)n1CCNC(=O)c1nccn1C	-4%
13	Cc1ccc(NS(=O)(=O)c2cccc(F)c2)cc1C	i
16	Cc1ccc(C(=O)Nc2ccc(N3CCCCC3)cc2)cc1	1%
9	Cc1ccc(-n2ncc(C(=O)Nc3c(Cl)cccc3Cl)c2C2CCNCC2)cc1	1%

(further entries)
cpd	SMILES	nsP2pro inh
21	CC(=O)Oc1ccc(C2(c3ccc(OC(C)=O)cc3)Oc3ccccc3NC2=O)cc1	-1%
22	CCOc1ccc(CNC(=O)c2ccc(NC(=O)c3nsc4ccccc34)cc2)cc1	-14%
23	Cc1nn(-c2ccc(C(C)(C)C)cc2)c(C)c1[C@@H]1C=C[C@@H](NC(=O)NC(C)C)C1	-8%[39.2 µM]
24	CC(C)N(Cc1nccn1C)C(=O)CC(c1ccccc1)c1ccccc1F (configuration not stated)	i
25	C[C@@H]1O[C@@H](O[C@H]2[C@H](O[C@H]3CC[C@@]4(C)C(CC[C@]5(C)C4CC=C4[C@@H]6CC(C)(C)CC[C@]6(C(=O)O[C@@H]6OC[C@H](O)[C@H](O)[C@H]6O[C@@H]6O[C@@H](C)[C@H](O[C@@H]7O[C@H](CO)[C@@H](O)[C@H](O)[C@H]7O)[C@H](O)[C@H]6O)[C@H](O)C[C@]45C)C3(C)C)O[C@H](CO)[C@@H](O[C@@H]3OC[C@@H](O)[C@H](O)[C@H]3O)[C@@H]2O)[C@H](O)[C@H](O)[C@H]1O (some centres not stated)	14%[5.1 µM]
26	CC(C)CCN1CC(C(=O)NCCc2ccncc2)C2(CCOCC2)C1 (configuration not stated)	i
27	O=C(Nc1ccc(S(=O)(=O)Nc2ccccc2Cl)c(Cl)c1)c1ccccn1	2%
28	CCc1ccc(NC(=O)c2cc3c([nH]c2=O)CC(C)(C)CC3=O)cc1	-15%
29	Cc1cccc(Nc2nc(-c3ccncc3)cs2)c1	19%
30	COc1ccc(C2(O)c3c(ccc4c3OC(C)(CCC=C(C)C)C=C4)NC(=O)C2OC)cc1 (configuration not stated)	u
31	O=C(NO)C1(CS(=O)(=O)c2ccc(Oc3ccc(Cl)cc3)cc2)CCOCC1	-6%
32	Cc1cc(C)n2nc(SCC(=O)Nc3ccccc3)nc2n1	-1%
33	CCC(=O)N1c2ccccc2CC1C(=O)NCCc1ccc(OC)cc1OC (configuration not stated)	-21%
34	COc1ccc2c(c1)N(C[C@H](C)CN(C)C)c1ccccc1S2	21%
35	C#CCNC(=O)C1CCc2nnc(CNC(=O)Nc3cccnc3)n21 (configuration not stated)	-12%
36	NC(=O)C1CCN(c2nc(-c3ccccc3[N+](=O)[O-])cs2)CC1	u
37	COCCN1CCc2nc(SCC(=O)Nc3ccc(Br)cc3)[nH]c(=O)c2C1	u
38	C/C=C(\C)[C@@H]1C(C)=C[C@@H]2[C@H]([C@@H]1/C=C/C=C/C(=O)O)[C@@H](C)CC[C@@H]2O	-2%
39	COc1cccc(CNC(=O)c2ccc(-n3c(C)cc4c3CCCC4)cc2)c1	-36%
40	O=C(O)C1CC2(CCN(C(=O)CCCn3ccnc3)CC2)CN1 (configuration not stated)	-3%
41	CCCn1c2ccccc2c2cnn(CC(=O)N(CCCOC(C)C)Cc3ccco3)c(=O)c21	-9%
42	O=C(c1ccc(=O)[nH]n1)N1CCCC(c2ccn[nH]2)C1 (configuration not stated)	-9%
43	O=C(N1CCC2(CCNCC2)CC1)C1(S(=O)(=O)c2ccccc2)CC1	-1%
44	CCC(=O)N1N=C(c2ccc(OC)cc2)CC1c1cn(-c2ccccc2)nc1-c1cccs1 (configuration not stated)	-19%
45	COc1cccc(S(=O)(=O)N2CCN(Cc3ccc4c(c3)OCO4)CC2)c1	-23%
46	CC(=O)c1c(OCCN2CCCCC2)c(OCCC(C)c2ccc(F)cc2)c2oc(C)nc2c1C (configuration not stated)	10%
47	CCOC(=O)c1c(C)[nH]c(C)c1S(=O)(=O)N1CCCC(C(=O)Nc2ccc(OC)c(OC)c2)C1 (configuration not stated)	-7%
48	COc1cccc2c1C(=O)c1c(O)c3c(c(O)c1C2=O)C[C@@](O)(C(=O)CO)C[C@@H]3O[C@H]1C[C@H](N)[C@@H](O)[C@H](C)O1	281%[activator]
49	CC1(C)O[C@@H]2C[C@H]3[C@@H]4C[C@H](F)C5=CC(=O)C=C[C@]5(C)[C@H]4[C@@H](O)C[C@]3(C)[C@]2(C(=O)CO)O1	4%
50	CC(C)CN(CC(=O)N(CCCN1CCCC1=O)CC(N)=O)C(=O)CNCCc1ccccc1F	10%
51	O=C([C@@H]1C[C@H](Oc2cccnc2)CN1C(=O)c1cc2ccccc2[nH]1)N1CCCC1	2%
52	CC1(CO)CCCC2(C)C1C(OC(=O)c1ccccc1)CC1C(=O)OCC12O (configuration not stated)	-10%
53	O=C(CCCN1C(=O)c2cccnc2Oc2ccc(Cl)cc21)NCc1ccccc1F	-12%
54	CCOc1ccc(-c2cc3c(=O)n(CCNC(=O)c4ccoc4)ccn3n2)cc1	4%
55	Cc1ccc(C)c(Cn2c(=O)cc(C(F)(F)F)c3c(C)nn(C)c32)c1	-17%
56	Cc1cc(N2CCN(C)CC2)nc2ccc(NC(=O)Nc3cccc(Cl)c3)cc12	58%[activator]
57	COCCN1C(=O)CCC2(C(=O)N3CCN(c4ccccn4)CC3)CCCC=C12 (configuration not stated)	-3%
58	COCCCNC(=O)CSc1nc(-c2cccc(F)c2)[nH]c1-c1ccccc1	-19%
59	CC(C)C(=O)N1CCC(NCCOc2ccccc2Cl)CC1	2%
60	COc1c2ccoc2cc2oc(=O)ccc12	-20%

Random excerpt: 4 entries already listed, in no set order.
cpd	SMILES	nsP2pro inh
15	COc1cccc(CN2Cc3cc(NS(=O)(=O)c4ccccc4)ccc3OCC2=O)c1OC	i
45	COc1cccc(S(=O)(=O)N2CCN(Cc3ccc4c(c3)OCO4)CC2)c1	-23%
57	COCCN1C(=O)CCC2(C(=O)N3CCN(c4ccccn4)CC3)CCCC=C12 (configuration not stated)	-3%
52	CC1(CO)CCCC2(C)C1C(OC(=O)c1ccccc1)CC1C(=O)OCC12O (configuration not stated)	-10%

Additional entries.
cpd	SMILES	nsP2pro inh
61	O=C1CCc2cc([S+](=O)([O-])Nc3ccc(Cl)c(Cl)c3)c(NCCCO)cc2N1	2%
62	Cc1cc2c(s1)c1cnn(Cc3ccccc3F)c(=O)c1n2C(C)C	-5%
63	C[C@H]1[C@@H]2[C@H]3OC(=O)[C@@H](C)[C@@H]3CC[C@@]2(C)CC[C@@H]1NC(=O)Cc1ccccc1	5%[39.2 µM]
64	CNCCN1C(=O)CC[C@H]2CN(Cc3cc(C4CCCCC4)no3)CC[C@H]21	i
65	O=C(Nc1nc(-c2ccccc2)cs1)c1ccncc1NS(=O)(=O)c1ccccc1	i
66	CN1CCc2c(sc(NC(=O)CSc3ccc(F)cc3)c2-c2nc3ccccc3s2)C1	-19%
67	CCn1nccc1C(=O)N1CCC([C@H]2[C@@H](OC)CN2C(C)C)CC1	i
68	Cc1ccc(NC(=O)N2CCC(c3nc(CCOCC4CC4)no3)C2)cc1C (configuration not stated)	-5%
69	Nc1c(-c2ccncc2)cc[nH]c1=O	-20%
70	CC1=CC(=O)CC(C)(C)[C@H]1/C=C/C(CO)O[C@@H]1O[C@H](CO)[C@@H](O)[C@H](O)[C@H]1O (some centres not stated)	66%[activator]
71	COc1ccc(C2Nc3ccccc3C(=O)N2Cc2cccnc2)cc1COc1c(C)cccc1C (configuration not stated)	4%
72	CC(=O)N[C@H]1[C@H](O[C@H]2CC[C@@]3(C)C(CC[C@]4(C)C3CC=C3C5CC(C)(C)CC[C@]5(C(=O)O)[C@H](O[C@@H]5O[C@H](CO)[C@@H](O)[C@H](O)[C@H]5O)C[C@]34C)C2(C)C)O[C@H](CO[C@@H]2OC[C@H](O)[C@H](O)[C@H]2O[C@@H]2OC[C@@H](O)[C@H](O)[C@H]2O)[C@@H](O)[C@@H]1O (some centres not stated)	37%[5.1 µM]
73	O=C(Cc1ccccc1)NCC1CN(Cc2ccncc2Cl)CC12CN(c1ccccc1)C2 (configuration not stated)	-22%
74	C=C1CC2C(C)(CCC(=O)O)C(C(C)(C)O)CCC2(C)C2(C(=O)OC)C(=O)C(C)(O)C(=O)C12C (configuration not stated)	-5%[10 µM]
75	COc1ccccc1N1CCN([C@@H]2[C@H](O)[C@H](CO)O[C@@H]2CN(Cc2ccc(F)cc2)Cc2ccc(F)cc2)CC1	-1%
76	Oc1ccccc1-c1nc(/C=C/c2ccc(F)cc2)nn1-c1ccccc1	-17%
77	CCC1(C(=O)O)CCCCC(=O)N1 (configuration not stated)	4%
78	O=C1CN(S(=O)(=O)c2c(F)cccc2F)CCN1S(=O)(=O)c1ccc2c(c1)OCCO2	-8%
79	CC1CC(=O)C2=C(O1)OC1(C)CCC3C(C)(C)C4OC4C(=O)C3(C)C1C2 (configuration not stated)	40%
80	C[S+](=O)([O-])c1ccc(C(=O)OCC(=O)N2CCNC(=O)C2)cc1[N+](=O)[O-]	u
81	Cc1ccc(NC(=O)CCCc2nc(-c3ccco3)no2)cc1Cl	-19%
82	CCN(CCCNC(=O)c1cc2c(=O)n(C)c3ccccc3c2s1)Cc1ccccc1	29%
83	O=C(Nc1cncc(-c2ccncc2)c1)c1cccs1	i
84	CC1=C(C(=O)Nc2ccc(C)cc2C)C(CC(C)C)n2nc(SCc3ccccc3C)nc2N1 (configuration not stated)	-27%
85	CNC(=O)c1noc([C@@H]2CC(F)(F)CN2C(=O)CCOC)n1	i
86	CCCCC(=O)Nc1ccc2nc(SCC(=O)N3CCCC3)sc2c1	-11%
87	Cc1ccc(C)c(NC(=O)C2CCN(S(=O)(=O)c3c(C)noc3/C=C/c3cccs3)CC2)c1	-15%
88	CCCS(=O)(=O)Nc1ccc(=O)n2c1[C@@H]1C[C@@H](CN(C(=O)c3ccc(OC)cc3)C1)C2	-9%
89	COC(=O)C1=CO[C@@H](O[C@@H]2O[C@H](COC(=O)/C=C/c3cc(OC)c(O)c(OC)c3)[C@@H](O)[C@H](O)[C@H]2O)[C@@H]2C(CO)=CC[C@H]12	14%[10 µM]
90	Cc1nc(-c2ccccc2C(C)C)nc(NCc2ccc(-c3cccnc3)cc2)c1C	3%
91	Cc1nn(C)c(C)c1CN(Cc1ccnc2ccccc12)C1CC1	-15%
92	COc1ccc(Nc2c3c(nc4ccc(NC(=O)c5cc(Cl)ccc5OC)cc24)CCCC3)cc1OC	-24%
93	C[C@]12C=C[C@@]3(CCC4[C@](C)(CO)CCC[C@@]4(C)C3CC1)C2 (some centres not stated)	11%
94	CC[C@@]1(O)C(=O)OCc2c1cc1n(c2=O)Cc2cc3c([N+](=O)[O-])cccc3nc2-1	-10%[39.2 µM]
95	CCOC(=O)c1c(C)c(-c2ccccc2)n(CC(=O)NC(CC)Cc2ccccc2)c1C (configuration not stated)	-14%
96	Cc1nc(-c2ccco2)cc([C@H]2CN3CC[C@H]2C[C@@H]3CNS(C)(=O)=O)n1	u
97	O=C(CCCCC(=O)Nc1c(I)cc(I)c(C(=O)O)c1I)Nc1c(I)cc(I)c(C(=O)O)c1I	0%
98	COC[C@]1(O)CCN(C(=O)CSCc2ccccc2C)CC1(C)C	-3%
99	CN1CCC(c2cn(C)c3ccc(OS(=O)(=O)c4c(F)cccc4F)cc23)CC1	105%[activator]
100	O=C(CCC1CCCC1)Nc1ccc(-c2nnc3n2CCCC3)cc1	5%
101	COc1cc2ccccc2cc1C(=O)Nc1cccc(-c2nc3cc(C)c(C)cc3o2)c1C	-17%

A portion of the library; count on the stated rates, not on these rows.
